MbtI inh: blocks the Mycobacterium tuberculosis siderophore enzyme MbtI; P9WFX0; purified MbtI enzyme, fluorescence intensity read-out; inhibition, %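 (about 17 µg/mL by stock and volumes)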; 100,000 compounds, 0.89% hits; AID 493033;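 active means above 50% in both replicates, above 80% if mildly self-fluorescent; inactive means the rest, strongly fluorescent compounds included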;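 further: 0% = mean of negative and 100% = mean of positive controls; one replicate is shown; some compounds called inactive have numbers as strong as hits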
PV pol inh: poliovirus RNA polymerase inhibition; P03300; poliovirus polymerase elongation, fluorescence polarization; stronger effect = lower value; % elongation, % (compound at 16.7 µg/mL); 150,000 compounds, 0.66% hits; in the data active means % elongation below about 90%; further: some results filed as inactive read as strong as hits
Target sequence (P03300 1749-2209 limits assumed): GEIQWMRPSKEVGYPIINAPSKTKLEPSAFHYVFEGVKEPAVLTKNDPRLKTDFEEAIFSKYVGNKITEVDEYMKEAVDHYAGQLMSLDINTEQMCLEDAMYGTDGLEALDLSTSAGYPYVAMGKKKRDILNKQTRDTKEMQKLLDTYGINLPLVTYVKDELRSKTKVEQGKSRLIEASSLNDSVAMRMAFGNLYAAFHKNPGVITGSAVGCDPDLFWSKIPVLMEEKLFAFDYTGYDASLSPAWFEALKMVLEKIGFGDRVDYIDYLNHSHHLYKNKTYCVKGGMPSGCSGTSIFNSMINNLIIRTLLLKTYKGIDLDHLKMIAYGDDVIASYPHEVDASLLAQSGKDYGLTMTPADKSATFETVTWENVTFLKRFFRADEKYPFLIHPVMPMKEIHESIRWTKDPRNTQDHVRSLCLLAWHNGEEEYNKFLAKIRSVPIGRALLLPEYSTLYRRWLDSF
MenB inh: blocks the Mycobacterium tuberculosis MenB enzyme | P9WNP5 | inhibition, %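 (about 12 µg/mL by stock and volumes)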 | AID 540299 | 100,000 compounds, 0.43% hits | MenB enzyme assay, absorbance read-out; some hits fall short of the stated cut;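 active means mean of two replicates above 30%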;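 further: 0% = no compound and 100% = wells with inactive enzyme; the first replicate is given; strong numbers were not always called active; inactives centre near -10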
Target sequence (P9WNP5 whole entry, looked up): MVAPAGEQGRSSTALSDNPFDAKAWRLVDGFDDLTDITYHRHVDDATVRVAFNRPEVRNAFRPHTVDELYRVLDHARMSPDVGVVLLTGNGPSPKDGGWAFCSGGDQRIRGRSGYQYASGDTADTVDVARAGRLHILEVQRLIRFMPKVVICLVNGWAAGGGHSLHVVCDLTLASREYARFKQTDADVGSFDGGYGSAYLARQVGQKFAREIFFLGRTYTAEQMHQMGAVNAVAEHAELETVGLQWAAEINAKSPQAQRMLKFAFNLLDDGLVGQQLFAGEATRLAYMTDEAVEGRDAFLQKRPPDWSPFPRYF
PV pol inh intensity: recorded beside PV pol inh, whose call it bears; % elongation; measured here: total intensity read-out; formula for this scale not given here;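 total fluorescence in place of polarization; lower means less elongation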
The depositor's hits bear a star; / = not tested or not shown; & = joins results of further samples.

Structure	PV pol inh	MenB inh	MbtI inh	PV pol inh intensity
CCOc1ccc2nc(NCCCNS(=O)(=O)c3ccccc3)c(C#N)cc2c1	100	22	2	106
Cc1ccc2cc(CCNC(=O)c3ccc(Cl)cc3Cl)c(=O)[nH]c2c1	102	-15	0	97
O=C(NCc1cccs1)c1cc(NS(=O)(=O)c2ccc(F)cc2)ccn1	100	4	-19	102
CCCc1c(C(=O)OCC)[nH]c2c1C(=O)CC(c1ccccc1)C2 (stereo not given)	99	-28	3	96
C(=N\c1n[nH]c(/N=C/c2ccccc2)n1)/c1ccccc1	97	-1	/	105
O=C(NS(=O)(=O)c1ccc(Cl)cc1)C1CC1	102	-15	-5	98
Cc1ccc(-c2nc3scc(CCNC(=O)Cc4ccccc4)n3n2)cc1	101	7	-5	102
O=S(=O)(c1ccc(NCc2nc3ccccc3[nH]2)nc1)N1CCCC1	106	8	-82	125

Structure	PV pol inh	MenB inh	MbtI inh	PV pol inh intensity
COc1ccc(N2CCN(CC(=O)c3ccc(OC)c(OC)c3)CC2)cc1	104	-9	-30	102
O=C(COc1ccc2ccccc2c1)NS(=O)(=O)c1ccccc1	101	6	-16	108
COc1ccc2[nH]c(=O)c(CN(Cc3ccco3)C(=S)NCc3ccco3)cc2c1	101	-13	-86	103
COC(=O)c1ccc(NC(=O)Nc2ccc3c(c2)nc(C)n3C)cc1	104	10	-16	100
CCCCN(C)C(=O)c1nn(C)c2c1CSc1ccccc1-2	102	-26	30	104
C#CCOc1c(Cl)cc(CNCC2CN(CC(C)C)CCO2)cc1OC (stereo not given)	95	-38	-6	85
N#CCSc1ccccc1NC(=O)CN1C(=O)C2CC=CCC2C1=O (stereo not given)	43	3	-3	246
CCC(CC)C(=O)Nc1cccc(C(=O)N2CCCC2)c1	101	-21	-2	101

Structure	PV pol inh	MenB inh	MbtI inh	PV pol inh intensity
O=C(O)C1CCCN1C(=O)c1cccnc1 (stereo not given)	105	-17	/	98
CCCCOc1ccc(C(=O)N=c2sccn2C)cc1OC	117	-3	-52	107
CCN(CC(=O)NCc1ccc(F)cc1)C(=O)c1cc(S(=O)(=O)N2CCOCC2)ccc1Cl	103	-28	8	106
Cn1c2ccccc2c2c(C(=O)N3CCC4(CC3)OCCO4)cn(C3CCCC3)c(=O)c21	103	-24	118	101
Cc1cc(C)cc(CC2CC(=O)N(CC(=O)O)C2=O)c1 (stereo not given)	103	-14	-3	104
CCn1c(SCc2cc(=O)n3cc(C)ccc3n2)nc2ccccc21	99	-29	101	92
CCc1cccc(NC(=O)c2cc3cc4ccc(OC)cc4nc3o2)c1	105	4	8	97
O=C(O)c1cc2c(cc1NC(=O)C1CCCC1)OCCCO2	104	-14	51	109

Structure	PV pol inh	MenB inh	MbtI inh	PV pol inh intensity
OCCN1CN=C(SCc2ccc(Cl)c(Cl)c2)NC1	106	-12	-2	99
N#CC1=C(N)OC2=C(C(=O)CCC2)C12C(=O)Nc1ccc(F)cc12 (stereo not given)	101	11	-4	102
CCOC(=O)c1c(-c2c(Cl)cccc2Cl)noc1C	112	-35	-1	111
CC(=O)NC1[C@@H](O)OC(CO)[C@@H](O)[C@H]1O[C@H](C)C(=O)O (stereo not given in full)	101	-11	-7	102
C#CCSc1ncc(-c2ccc(Cl)cc2)n1C	106	5	/	98
N#CCN(CC#N)C(=O)c1cc(Cl)ccc1Cl	103	-26	/	95
O=c1c(-c2ccc(Br)cc2)coc2cc(O)cc(O)c12	99	3	-3	101
CN(C)C(=O)Oc1nnc(SCC(=O)c2ccc3c(c2)OCCO3)n1C1Cc2ccccc2C1	112	0	-11	115

Structure	PV pol inh	MenB inh	MbtI inh	PV pol inh intensity
Cc1ccccc1C(=O)NC1CCN(Cc2nnnn2Cc2ccccc2)CC1	102	-12	3	101
O=C(Cn1c(=O)c2c(ncn2Cc2ccccc2)n(Cc2ccccc2)c1=O)N1CCCC1	103	2	-21	107
Cn1nc(C(F)(F)F)cc1Cl	106	-10	/	110
Cc1ccc(C(=O)NCc2ccc(-c3nc4ncccc4o3)cc2)cc1	101	7	57	101
CC(Nc1ccccc1)C(=O)N1CCc2ccccc21 (stereo not given)	102	-20	-20	101
C=CCn1c(=O)n(CC=C)c(=O)n(Cc2ccc(C#N)cc2)c1=O	101	-28	7	105
Cc1cnn(C(=S)NCc2ccc(Cl)cc2)c1	102	-9	8	103
COc1ccc(NC2=NCC(C)S2)cc1 (stereo not given)	99	11	7	105

Structure	PV pol inh	MenB inh	MbtI inh	PV pol inh intensity
Cc1cc(C)cc(NC(=O)Cn2cnc3c(nnn3Cc3ccc(F)cc3)c2=O)c1	100	-21	-9	102
CC1Cc2cc(S(=O)(=O)N(C)CC(=O)NCc3ccccc3)ccc2N1C(=O)C1CC1 (stereo not given)	101	11	12	101
O=C(c1ccccc1)c1cnn(-c2ccc(Cl)cc2)n1	105	-60	-1	105
Cc1cc(NC(=O)COC(=O)C2CCN(S(=O)(=O)c3ccc(C(C)C)cc3)CC2)no1	103	-10	-5	98
Cc1noc(/C=C/N(C)C)c1S(=O)(=O)N(C)c1ccc(C(C)C)cc1	102	-11	-6	107
Cc1ccccc1CN1C(=O)/C(=C\c2ccc(C(=O)N3CCOCC3)cc2)Sc2ccccc21	103	-20	-5	106
O=C(O)CSc1nc2ccc(C(=O)c3ccccc3)cc2[nH]1	103	-31	/	100
CCC(Sc1nc2nccnc2c(=O)n1Cc1ccccc1)C(=O)NC1CCCCC1 (stereo not given)	101	4	-1	102

Structure	PV pol inh	MenB inh	MbtI inh	PV pol inh intensity
O=C(NCc1ccccn1)C1CC(c2cccc(Br)c2)=NO1 (stereo not given)	104	-30	-6	105
CSC1=NCCCN1C(=O)c1ccccc1I	109	-12	3	107
O=C1C=C(N2CCCCC2)C2(CCCCC2)O1	104	8	2	104
Cc1nc(SCC(=O)NC2CCCC2)[nH]c(=O)c1Cc1ccccc1	102	-18	-1	103
CCC(CO)NC(=O)c1cc2c(n(-c3ccccc3)c1=O)CC(C)(C)CC2=O (stereo not given)	101	10	110	103
CC1COC(CC(C)c2ccccc2)O1 (stereo not given)	101	21	0	102
Cc1cc(C)n2c(Nc3cccc(C(F)(F)F)c3)c(-c3ccc(O)cc3)nc2n1	106	-9	-6	118
Cc1csc(NC(=O)NC(C)(C)C)n1	106	-15	/	105

Structure	PV pol inh	MenB inh	MbtI inh	PV pol inh intensity
O=C(OC(C(=O)Nc1ccc(Cl)cc1C(F)(F)F)c1ccccc1)c1ccncc1 (stereo not given)	102	/	-14	106
Nc1ccccc1N1CCN(C(=O)c2ccccc2)CC1	101	23	2	102
O=C(CCC(=O)c1ccccc1)Nc1nccs1	103	-15	-2	105
CC(C)(C#N)N1CCOCC1	106	-5	-65	113
Cc1cc(N=Cc2ccc3ncccc3c2)ccc1Br	102	/	-1	97
O=C(Nc1cccc(C(=O)N2CCN(C(=O)c3ccco3)CC2)c1)c1ccccc1	100	-11	-7	103
CN(C)c1ccc(-c2nnn(CC(=O)N(C)C3CCCCC3)n2)cc1	104	-29	-1	104
Brc1cc2c(cc1COc1ccc(-c3nn[nH]n3)cc1)OCO2	102	-15	-7	105

Complete entries from above. Order of values: PV pol inh, MenB inh, MbtI inh, PV pol inh intensity
`O=C(OC(C(=O)Nc1ccc(Cl)cc1C(F)(F)F)c1ccccc1)c1ccncc1` (stereo not given) as listed: 102, /, -14, 106
`Cc1cc(N=Cc2ccc3ncccc3c2)ccc1Br` as listed: 102, /, -1, 97
`Brc1cc2c(cc1COc1ccc(-c3nn[nH]n3)cc1)OCO2` as listed: 102, -15, -7, 105
`CC(C)(C#N)N1CCOCC1` as listed: 106, -5, -65, 113
`Nc1ccccc1N1CCN(C(=O)c2ccccc2)CC1` as listed: 101, 23, 2, 102

Other structures:
Structure	PV pol inh	MenB inh	MbtI inh	PV pol inh intensity
CCC(CC)c1nc2ccccc2[nH]1	102	-4	-4	109
COc1ccc(CC(N)C(=O)N[C@H]2[C@@H](O)[C@H](n3cnc4c(N(C)C)ncnc43)O[C@@H]2CO)cc1 (stereo not given in full)	98	/	18	99
Nc1c(C(=O)O)noc1C(=O)c1ccccc1	101	-24	4	109
COc1ccccc1N(CC(=O)NC1CCCCC1)C(=O)c1csnn1	101	-19	0	101
CCc1ccccc1OCCCN(CC)CC	103	1	-4	102
CC(Sc1ccc2c(c1)OCCO2)C(=O)Nc1ccccc1C#N (stereo not given)	103	-21	13	106
Cc1ccc(CC(C#N)Sc2nnc(COc3ccccc3Cl)n2C)cc1 (stereo not given)	101	-28	8	100
CON(C)C(=O)c1sc2ccccc2c1Cl	103	-79	9	102

Structure	PV pol inh	MenB inh	MbtI inh	PV pol inh intensity
COc1ccc(CCNC(=S)Nc2ccc(N3CCOCC3)c3nonc23)cc1OC	101	-34	-10	101
O=c1[nH]nc(-c2cccs2)cc1Cc1ccsc1	104	-14	7	105
O=C(CC1S/C(=N/N=C/c2ccco2)NC1=O)Nc1ccc(Cl)cc1 (stereo not given)	103	-19	1	102
NC(=O)c1ccc(OCc2cc3c(cc2Br)OCCO3)cc1	104	-55	-4	96
O=C(O)Cn1c2c(c3cc(F)ccc31)CCCC2	98	10	89	104
O=c1[nH]c2cc3c(cc2cc1CN(Cc1nnnn1CCc1ccccc1)C1CCCC1)OCCO3	102	7	2	103
Cc1ccc(Oc2ccc3c(c2)C(=O)N(c2cccc(O)c2)C3=O)cc1	100	3	7	102
CN1CCN(CC(=O)CCN2C(=O)/C(=C/c3ccccc3Cl)SC2=S)CC1	103	-58	13	105

Structure	PV pol inh	MenB inh	MbtI inh	PV pol inh intensity
Cc1noc2ncnc(SCC(=O)Nc3cc(Cl)cc(Cl)c3)c12	102	2	-3	108
Cc1ccc(N=Cc2c[nH]c3ccccc23)nc1	106	8	/	106
COCCNC(=O)c1cc2ncc(Br)cn2n1	100	-1	-12	103
CCCCC[C@H](O)/C=C/C=C\CCCCCCCC(=O)O	101&101	6	-14	105&103
CCOC(=O)CSc1nnc(CSc2nc(N)c3c(C)c(C)sc3n2)n1-c1ccccc1	102	-14	12	101
O=C(c1nn2c(C(F)(F)F)cc(-c3ccccc3)nc2c1Br)N1CCN2CCCC2C1 (stereo not given)	102	3	15	101
c1ccc(-c2nc(SCC3CCOCO3)oc2-c2ccccc2)cc1 (stereo not given)	104	-15	110	105
CCC(=O)Nc1ccc(C(=O)CN2C(=O)NC3(CCCc4ccccc43)C2=O)cc1 (stereo not given)	/	-39	1	/

Structure	PV pol inh	MenB inh	MbtI inh	PV pol inh intensity
O=C(NC(=S)c1c(-c2ccccc2)cc2ccccn12)c1ccccc1	105	0	2	98
C=CCNC(=O)C1CCCN(S(C)(=O)=O)C1 (stereo not given)	104	12	5	98
CN1C(=O)N(C)C(=O)C(C2CCC3OCC2O3)(C2CCC3OCC2O3)C1=O (stereo not given)	110	-13	/	106
CCc1ccc(NC(=O)C2CC(=O)Nc3ncnn32)cc1 (stereo not given)	100	-1	-11	99
C=CCc1c(C)nc(SC)nc1Nc1ccc(C)cc1	103	-13	-7	101
O=C(COc1c(Br)cc(Br)c2cccnc12)N1CCCCC1	102	/	-62	103
O=C1c2ccccc2CN1CCNS(=O)(=O)c1ccc2oc3ccccc3c2c1	104	-18	/	96
CC(=O)N1CCN(CC(O)COCc2ccccc2F)CC1 (stereo not given)	101	-22	-1	106

Structure	PV pol inh	MenB inh	MbtI inh	PV pol inh intensity
Cc1ccccc1C(=O)OCC(=O)c1sc2ccc(Cl)cc2c1C	102	8	0	108
O=C(Cc1csc2nc3sc4c(c3c(=O)n12)CCC4)N(CCO)CCO	100	3	-9	103
COC(=O)c1ccc(C(c2cc3c(cc2O)OCO3)N2CCN(c3ccccc3)CC2)cc1 (stereo not given)	99	-18	102	104
COC(=O)c1cccc(COC(=O)c2cccnc2SC)c1	104	-16	-11	109
CCCSc1nnc(Nc2ccccc2OC)s1	106	-4	19	105
COC(=O)/C=C1/N/C(=N/c2nc3cc(C)ccc3o2)NC1=O	100	9	8	98
Cc1nn(CCCC(=O)N(C)Cc2ccccc2)c(=O)c2cc3sccc3n12	102	5	0	104
CC1CCc2c(sc3ncnc(NC4CC4)c23)C1 (stereo not given)	108	-24	5	98

Structure	PV pol inh	MenB inh	MbtI inh	PV pol inh intensity
CCOCC(=O)Nc1cccc(Br)c1	100	0	-14	102
O=C1C(=O)N(CCCN2CCOCC2)C(c2ccccc2)/C1=C(\O)c1ccc(S(=O)(=O)N2CCOCC2)cc1 (stereo not given)	103	-6	4	101
COc1ccc(C(=O)OC(C)CN2CCN(C)CC2)cc1 (stereo not given)	102	-6	/	109
CC(C)c1ccc(NC(=O)CSc2n[nH]c(=O)n2Cc2ccco2)cc1	97	-9	-10	96
Cc1nc2ccccc2nc1Sc1nnc(-c2ccccc2)o1	131	-34	/	196
CC(C)c1ccc(Nc2c(-c3ccc(N(C)C)cc3)nc3nc[nH]n23)cc1	102	-29	-3	95
NC(CO)C(=O)NNCc1ccc(O)c(O)c1O (stereo not given)	101&100	-1&10	-19&-22	101&103
O=C1NC2(CCCCC2)Nc2ccccc21	102	1	115	104
CCOC(=O)c1cc(-c2ccc(Br)s2)n[nH]c1=O	102	-16	8	105
CCCCS(=O)(=O)Nc1ccc(Cc2ccncc2)cc1	98	-9	/	104
CCOC(=O)/C(C#N)=C/Nc1nnc(SCC#N)s1	102	-2	-8	102

Assay outcomes: PubChem, ICCB-Longwood Screening Facility, Harvard Medical School
